TSHR agonist: qHTS Assay for Agonists of the Thyroid Stimulating Hormone Receptor; 73,000 tested, 0.48% active; HEK293-CNG-TSHR cells (CNG channel as cAMP sensor), membrane potential dye, cAMP; Thyrotropin receptor (Homo sapiens), P16473; Potency, µM (doses to about 57.1 µM), without a hit: at the top dose activation, actives largely listed as activators; active = well fitted activation curve of enough size with the parental cells flat; inconclusive = any curve in the parental cells; inactive = parental cells flat and receptor cells flat or falling; further: potency means the concentration at half of the fitted maximal effect; % of control where 0% means no effect; weak receptor curves with flat parental cells got no call and are not listed
Target sequence (P16473 whole entry, looked up): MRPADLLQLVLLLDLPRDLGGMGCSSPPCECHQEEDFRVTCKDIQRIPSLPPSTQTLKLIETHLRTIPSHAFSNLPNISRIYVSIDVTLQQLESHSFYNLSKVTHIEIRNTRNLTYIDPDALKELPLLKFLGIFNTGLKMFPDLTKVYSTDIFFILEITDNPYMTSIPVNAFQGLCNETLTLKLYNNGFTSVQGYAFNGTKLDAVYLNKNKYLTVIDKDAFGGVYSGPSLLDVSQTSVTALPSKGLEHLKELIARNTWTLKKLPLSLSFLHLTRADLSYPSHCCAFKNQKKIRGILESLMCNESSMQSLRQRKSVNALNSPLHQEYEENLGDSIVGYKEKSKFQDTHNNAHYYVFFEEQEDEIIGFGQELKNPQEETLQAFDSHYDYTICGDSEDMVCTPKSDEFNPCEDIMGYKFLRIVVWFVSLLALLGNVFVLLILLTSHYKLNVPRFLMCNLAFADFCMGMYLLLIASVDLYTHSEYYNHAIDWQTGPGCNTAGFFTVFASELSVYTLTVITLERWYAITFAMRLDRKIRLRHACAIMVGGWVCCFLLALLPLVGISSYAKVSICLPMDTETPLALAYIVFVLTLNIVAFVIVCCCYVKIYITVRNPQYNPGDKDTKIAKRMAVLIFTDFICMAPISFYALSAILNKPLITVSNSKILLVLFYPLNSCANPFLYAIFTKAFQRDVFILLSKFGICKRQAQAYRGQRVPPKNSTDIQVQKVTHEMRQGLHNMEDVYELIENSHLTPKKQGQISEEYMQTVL
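cAMP rise detected as CNG-channel membrane depolarization by fluorescent dye (emission 590 nm), 30 min after compound, following 60 min dye loading containing 100 uM RO 20-1724 at room temperature. Cells: TSHR/CNG HEK 293, with parental CNG HEK 293 as control.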
Resorufin fluor: qHTS Assay for Spectroscopic Profiling in Resorufin Spectral Region; Compound fluorescence, resorufin region 547/598 nm, buffer; stronger effect = higher value; max dye-equivalent concentration, M; 59,000 tested, 0.04% active; AID 588, 2007; active = above 10 nM dye equivalent; inconclusive = 1 to 10 nM; inactive = 1 nM or less; a few of its hits are not listed in these tables; further: highest value over a series up to 38 µM
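Dye-equivalent concentration values derive from comparing each well's 547/598 nm fluorescence against resorufin standards included on every plate. Incubation was 15 min at room temperature in 100 mM Tris, pH 8.0.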
A647 autofl: qHTS Assay for Spectroscopic Profiling in A647 Spectral Region | Compound fluorescence, A647 channel (570/671 nm), Tris buffer | max dye-equivalent concentration, M | 59,000 tested, under 10 active; active means above 1 µM dye equivalent; inconclusive means 0.1 to 1 µM; inactive means 0.1 µM or less;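 further: values scaled relative to a standard on each plate; highest value over a series up to 38 µM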
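Tris 100 mM pH 8.0; cpd + A647 stds pin-transferred; 15 min RT; CCD imager, ex 570/em 671. Output = A647-equivalent conc. per cpd conc.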
AID923: qHTS Assay for Allosteric/Competitive Inhibitors of Caspase-1: Spectroscopic Profiling in AFC Spectral Region; Potency, µM (doses to about 57.5 µM), without a hit: at the top dose fluorescence increase, most hits filed as activators; 75,000 tested, 1.1% active; compound fluorescence, AFC spectral region (405/520 nm); almost no hit is shown here; active means well fitted activation curve with a large enough effect; inconclusive means small, poorly fitted or top-dose-only effect;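 further: potency means the concentration at half of the fitted maximal effect; 0% is about no effect; scaled to a free AFC standard on each plate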
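Titrations up to 57 uM read every 20 sec for 3 min (405/520 nm) with 50 nM caspase 1 and 5 uM Ac-WEHD-AFC, pH 7.5 HEPES buffer. Fluorescence-vs-time intercept gave baseline, scaled against on-plate AFC standard.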
A488 autofl: qHTS Assay for Spectroscopic Profiling in A488 Spectral Region; compound autofluorescence, A488 spectral region, dye equivalency; stronger effect = higher value; max dye equivalency, M; 59,000 tested, 0.1% active; AID 591, 2007; active = above 10 nM dye equivalent; inconclusive = 1 to 10 nM; inactive = 1 nM or less; about half of its hits are not listed in these tables;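 further: highest value over a series up to 38 µM; compound alone in buffer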
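Compounds pin-transferred into 100 mM Tris buffer, pH 8.0, incubated 15 min at room temperature, then imaged with 480 nm excitation/540 nm emission filters. Fluorescence converted to Alexa 488 dye-equivalent concentration via an on-plate six-point A488 standard curve.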
Numbers without * were called inactive; i = inactive; ? = inconclusive; nt = no result given; & = joins results of further samples; [ ] = another dose, or the depositor's remark. Only part of the results is shown, so the mix of outcomes need not match the whole.

SMILES	TSHR agonist	Resorufin fluor	A647 autofl	AID923	A488 autofl
Cc1nc2cnc(Oc3ccccc3)nc2n(C)c1=O	?	i	1.6e-09	0.8%	i
CC(=O)c1cccc(NS(=O)(=O)N2CCCCC2)c1	1%	i	1e-09	-0.7%	i
COc1ccccc1NC(=O)COc1ccc(C(=O)OCC(=O)N2CCCC2=O)cc1OC	1%	i	1.6e-08	-0.7%	i
c1c2c(cc3sc(N4CCCCC4)nc13)OCO2	3%	i	3.2e-08	0.4%	i
O=C1c2ccccc2C(Nc2ccc(F)c(Cl)c2)N1c1ccccn1 (centres undefined)	20µM*	nt	nt	1.9%	nt
CC(C(=O)NCC1CCCO1)N(C(=O)c1snc(C(N)=O)c1N)c1cccc(F)c1 (centres undefined)	?	i	1e-09	12%	i
CC1Cc2nc(SCC(=O)NCc3ccco3)n(-c3ccccc3)c(=O)c2S1 (centres undefined)	1%	nt	nt	4.6%	nt
COc1ccc(/C=N/n2cc(-c3ccccc3)nc2N)cc1	1%	nt	nt	2.0%	nt
Cc1cc(Cl)ccc1OCCCC(=O)NC1CCN(C)CC1	-5%	i	3.2e-08	0.4%	i
CCC(CC)NC(=O)c1n[nH]c(=O)c2ccccc12	9%	i	6.7e-09	-2.7%	i
O=S1(=O)NC(=NCc2ccccc2)c2ccccc21	-1%	i	4e-09	0.7%	i
CCCn1c(=O)[nH]c(=O)c2[nH]cnc21	6%	i	1e-09&5.9e-08	-2.5%	i
COc1ccc(CNc2ccc3cn[nH]c3c2)c(OC)c1OC	1%	nt	nt	2.4%	nt
O=C(CN1CCN(Cc2ccccc2)CC1)c1c[nH]c2ccccc12	-1%	i	1.5e-08	-0.6%	i
COc1cccc(N2CCN(C3OC(=O)c4ccccc43)CC2)c1 (centres undefined)	0%	i	1.5e-08	0.2%	i
CCOC(=O)N1CCN(C(=O)C2CCCN(Cc3nc(-c4ccc(Cl)cc4)oc3C)C2)CC1 (centres undefined)	?	nt	nt	4.1%	nt
CC(C)c1nnc(NC(=O)c2cnccn2)s1	-7%	i	1e-09	0.2%	i
COCCn1c(-c2ccc(OC)c(OC)c2)nc2ccccc21	2%	i	1.1e-08	3.1%	i
CC(=O)Nc1ccc(C(=O)CSc2ncn(-c3ccccc3)n2)cc1	6%	nt	nt	0.4%	nt
CCOc1ccc(S(=O)(=O)Nc2nc3ccccc3nc2N2CCN(C)CC2)cc1	20%	i	2.8e-09	1.7%	i
Cc1nc2nc(C)c(CCC(=O)NCCCN3CCN(c4cccc(Cl)c4)CC3)c(C)n2n1	8%	i	8.9e-09	-1.7%	i
CN1CCN(C2=Cc3ccccc3Oc3ccc(Cl)cc32)CC1	29%	nt	nt	-1.6%	nt
COc1ccc2c(c1OC)C(=O)OC2c1c(O)nc(SC)n(-c2ccccc2)c1=O (centres undefined)	nt	i	7.7e-08	nt	i
COc1ccc(-n2c(SCC(=O)Nc3cc(C)on3)nc3c(c2=O)SCC3)cc1	-2%	nt	nt	-2.5%	nt
CCOCCCNc1ccc(-c2ccccc2)nn1	-3%	i	1e-09	-0.4%	i

Reprinted from the part before: 4 entries; new compounds follow.
SMILES	TSHR agonist	Resorufin fluor	A647 autofl	AID923	A488 autofl
CN1CCN(C2=Cc3ccccc3Oc3ccc(Cl)cc32)CC1	29%	nt	nt	-1.6%	nt
COc1ccc2c(c1OC)C(=O)OC2c1c(O)nc(SC)n(-c2ccccc2)c1=O (centres undefined)	nt	i	7.7e-08	nt	i
COc1ccc(-n2c(SCC(=O)Nc3cc(C)on3)nc3c(c2=O)SCC3)cc1	-2%	nt	nt	-2.5%	nt
CCOCCCNc1ccc(-c2ccccc2)nn1	-3%	i	1e-09	-0.4%	i
O=C(Nc1ccccc1C(=O)OCc1nnc(-c2ccccc2)o1)c1ccco1	?	i	1e-09	0.6%	i
Cc1ccccc1NC(=O)C1CCC(C)(C(=O)O)C1(C)C (centres undefined)	-6%	nt	nt	2.1%	nt
CC(=O)Nc1nonc1NC(=O)CSC1=NCCS1	4%[11.4 µM]	i	3.6e-08	2.0%	i
CN1CCN(c2nc3c(c(=O)[nH]c(=O)n3C)n2CCOc2ccccc2)CC1	-5%	i	1e-09	-1.1%	i
CCOc1ccc(NC(=O)CCn2cccc2)cc1	?	nt	nt	2.2%	nt
Cc1ccc(CC2CC(=O)N(c3ccc4c(c3)OCCO4)C2=O)cc1 (centres undefined)	nt	i	1e-09	nt	i
COc1ccc(NC(=O)N2CCC3(CC2)CCN(C(=O)c2cnccn2)CC3)cc1	23%	i	2.1e-08	1.1%	i
NC/C=C\C(=O)O	?	i	1e-09&2.4e-08	1.8%&-0.6%	i
COC(=O)CSc1nc(C)cc(Oc2ccccc2)n1	-4%	nt	nt	1.5%	nt
C=CCCC/C=C(/C)C(OCc1ccc(OC)cc1)C(CC/C=C(\C)C(N)=O)OC (centres undefined)	7%[11.4 µM]	nt	nt	-0.3%[11.5 µM]	nt
CCOC(=O)C(NC(=O)Nc1ccccc1)(OCC)C(F)(F)F (centres undefined)	6%	i	3.1e-08	1.1%	i
CCN(CC)S(=O)(=O)c1ccc(C(=O)OC2CCCCC2CN(C)C)cc1 (centres undefined)	7%	i	5e-09	-1.3%	i
Nc1ncc(-c2ccccc2)n1CC1CCCO1 (centres undefined)	0%	i	1.7e-08	-1.9%	i
COC(=O)CC1Nc2ccccc2SC1=O (centres undefined)	-3%	i	3.6e-08	-0.7%	i
O=C(c1ccccc1)c1ccccc1C(=O)N1CCCC1	23%	i	3e-08	-0.6%	i
Cc1ccc(C(=O)NCCCC(=O)O)o1	-2%	nt	nt	0.8%	nt
Cc1onc(-c2ccccc2Cl)c1C(=O)NCCN1Cc2ccccc2C1=O	5%[11.4 µM]	nt	nt	-1.7%	nt
COc1cc(NC(=O)c2ccco2)c(OC)cc1NC(=O)Nc1ccc(Cl)cc1	?	i	5.9e-09	12%	i
Nc1cnn([C@@H]2O[C@H](CO)[C@@H](O)[C@H]2O)c(=O)n1	3%	nt	nt	-1.2%	nt
Cc1oc(-c2cccc(Cl)c2)nc1CN1CCC(C(=O)NCCCN2CCCC2=O)CC1	1%	nt	nt	-0.7%	nt
O=C(Nc1cccc(F)c1)C1CCN(c2nnnn2-c2ccccc2)CC1	-3%	i	1e-09	-0.2%	i
C=CCn1c(SCC(=O)Nc2cccc(C)c2)nnc1-c1cnccn1	19%	i	1.1e-08	-1.1%	i
CC(=O)N1CCc2cc(S(=O)(=O)NCCC(=O)N3CCN(c4ccccn4)CC3)ccc21	-2%	i	3e-08	-1.1%	i
COc1ccc(/C=N/n2c(C)nnc2C)c(OC)c1	1%	nt	nt	-1.7%	nt
CCOC(=O)COc1ccc2c(c1)C(=O)CC1(CCN(C(C)=O)CC1)O2	-11%	i	4.2e-09	15%	i

Later entries
SMILES	TSHR agonist	Resorufin fluor	A647 autofl	AID923	A488 autofl
CCCS(=O)(=O)N1CCC(C(=O)N2CCc3ccccc3C2)CC1	4%	i	2.3e-08	0.1%	i
C[C@]1(C(=O)NCc2cc(F)cc(C(F)(F)F)c2)C=C[C@@H](Cc2ccccc2)N1C(=O)c1ccccc1	?	nt	nt	-1.5%	nt
O=C1CC(c2ccccc2)Cc2nc(N3CCc4ccccc43)ncc21 (centres undefined)	nt	i	2.2e-09	1.3%	i
CN1CCCc2cc(C#N)c(=O)[nH]c21	5%[11.4 µM]	nt	nt	16%	nt
COC(=O)c1cc2occc2n1CC(=O)Nc1ccc(OC)c(OC)c1	1%[11.4 µM]	i	1e-08	0.3%	i
O=C(Nc1ccc(Cl)cc1)C1CC2CCCC(C1)C2=O (centres undefined)	0%[11.4 µM]	nt	nt	-0.2%	nt
CC(C)NC(=O)N1CC[C@@]2(CCCN(C(=O)c3ccncc3)C2)C1	12%	i	3.8e-09	1.4%	i
COCCCNS(=O)(=O)c1ccc2c3c(cccc13)C(=O)S2	2%	i	4.7e-09	7.4%	i
O=C(C1CC1)N1CCN(c2nc3ccccc3s2)CC1	2%	i	2.6e-08	0.3%	i
CCCOc1ccc(N2CC(C(=O)Nc3ccccc3OC)CC2=O)cc1 (centres undefined)	4%	nt	nt	-0.3%	nt
O=C(N(c1ccccc1)c1ccccc1)n1ccnc1	nt	i	2.6e-09	nt	i
CC1=C(C(=O)N2CCOCC2)C(c2cc(C)cs2)NC(=O)N1 (centres undefined)	11%	nt	nt	-0.4%	nt
CC(C)OC(=O)[C@H]1[C@H](c2ccc(Cl)cc2)[C@@](C#N)(C(N)=O)[C@@H]2C=CC(C(N)=O)=CN21	nt	i	3.3e-08	nt	i
COc1ccc(C2Nc3ccccc3C(=O)N2O)cc1OC (centres undefined)	-1%	i	9.1e-09	0.1%	i
COC(=O)[C@@]1(Cc2ccc(OC)cc2)[C@H]2c3cc(C(=O)N(C)C)n(Cc4ccc(Cl)c(C(F)(F)F)c4)c3C[C@H]2CN1C(=O)c1ccccc1	-1%	nt	nt	2.0%	nt
CC(C)CN(CCNC(=O)CC1Oc2ccccc2NC1=O)CC(C)C (centres undefined)	21%	nt	nt	-0.7%	nt
Cc1ccc(-c2nnc(N(C)C(=O)c3cccnc3)s2)cn1	-3%	i	8.2e-09	-0.7%	i
Cc1ccc(-c2nn[nH]n2)o1	0%	i	2.3e-08	0.6%	i
Cc1ccccc1CN1CCN(CC(=O)NCc2ccccc2)C1=O	3%	i	3.3e-09	-1.8%	i
CCOC(=O)CNc1nnc(SCC(=O)OCC)[nH]c1=O	?	i	1e-09	2.3%	i
C=CCn1nnnc1SCC(=O)Nc1cccc(OC)c1	7%	i	4.5e-09	1.3%	i
O=C(O)C1CCN(Cc2cnn(-c3ccccc3)c2-n2cccc2)CC1	-8%	i	2.9e-08	0.8%	i
Cc1ccccc1N1CC(c2nc3ccccc3[nH]2)CC1=O (centres undefined)	-2%	i	3.3e-08	-0.4%	i
CN(C)c1nc(N)nc(N(c2ccccc2)c2ccccc2)n1	20%	nt	nt	-1.4%	nt
Cc1ccc(NC(=O)NCCN2C(=O)C3C4C=CC(C4)C3C2=O)cc1 (centres undefined)	1%	nt	nt	1.1%	nt

(further entries)
SMILES	TSHR agonist	Resorufin fluor	A647 autofl	AID923	A488 autofl
CCN(Cc1ccccc1)C(c1cc2cc(C)ccc2[nH]c1=O)c1nnnn1CCOC (centres undefined)	2%	i	3.9e-08	2.4%	i
Cn1cc(S(=O)(=O)Nc2ccc(Br)cc2F)c(=O)n(C)c1=O	?	nt	nt	2.0%	nt
O=C(Nc1cccc(F)c1)c1cccnc1N1CCOCC1	4%[11.4 µM]	i	1e-09	-0.9%	i
N=C(N)SC(c1ccccc1)c1ccccc1	1%[11.4 µM]	i	1.8e-09	-1.4%[11.5 µM]	i
COc1cc(NC(=O)c2cccs2)cc(OC)c1	-14%	i	2.2e-08	-1.5%	i
COC(=O)CSc1nnc(-c2ccco2)o1	-9%	i	4.4e-08	-0.8%	i
CCOc1ccc2[nH]c3c(N4CCN(c5ccccn5)CC4)ncnc3c2c1	-10%	i	1e-09	-2.3%	i
CCCS(=O)(=O)N1CCCC(C(=O)NCC2CCCO2)C1 (centres undefined)	0%	i	1e-09	-0.6%	i
CCc1cc(C(=O)NCCN(C)C)cs1	27%	i	2.3e-08	0.4%	i
CCOC(=O)c1ccc(NC(=O)CSc2nnc(CNc3ccc(OC)cc3)n2C)cc1	-10%	i	1.8e-09	3.4%	i
CCCCCCC(=O)Nc1c(O)c2ccccc2[nH]c1=O	-7%	i	6.3e-09	0.7%	i
COc1ccccc1N(CC(=O)Nc1ccccc1C)S(C)(=O)=O	-2%[11.4 µM]	nt	nt	-0.7%	nt
